# AF4-AF9 inh – inhibitors of AF4 peptide binding to AF9, primary screen, biochemical, AlphaScreen, biotin-AF4 peptide, FLAG-AF9, single point. inhibition, % at 10 µM. actives 0.47% (n = 350,000). Protein AF-9 (Homo sapiens), P42568;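 active = every replicate reaching a set inhibition limit, whatever the replicate mean, cut at about 25% in these data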;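 note: 0% = plate neutral control median and 100% = total signal loss; the record names both 10 and 1 µM as test concentration; the first replicate is given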
# Target sequence (P42568 whole entry, looked up): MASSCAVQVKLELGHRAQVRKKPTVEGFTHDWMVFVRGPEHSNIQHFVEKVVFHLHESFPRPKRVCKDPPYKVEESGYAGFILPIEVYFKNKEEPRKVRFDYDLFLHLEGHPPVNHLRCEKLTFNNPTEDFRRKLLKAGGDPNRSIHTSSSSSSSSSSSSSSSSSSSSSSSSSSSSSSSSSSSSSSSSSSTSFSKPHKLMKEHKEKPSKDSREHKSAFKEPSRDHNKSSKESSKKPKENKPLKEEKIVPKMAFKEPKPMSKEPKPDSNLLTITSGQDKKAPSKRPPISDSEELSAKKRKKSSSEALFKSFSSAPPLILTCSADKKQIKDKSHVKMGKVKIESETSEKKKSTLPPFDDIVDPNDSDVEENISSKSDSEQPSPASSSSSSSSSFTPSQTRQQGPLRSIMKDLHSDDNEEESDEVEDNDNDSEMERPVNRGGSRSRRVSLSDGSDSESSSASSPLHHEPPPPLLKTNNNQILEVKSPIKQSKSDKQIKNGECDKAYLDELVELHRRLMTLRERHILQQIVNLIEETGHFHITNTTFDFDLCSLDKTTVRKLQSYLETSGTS
# * hit, by the source's call.
AF4-AF9 inh	SMILES
3.4	NC(=O)C1CCN(C(=O)c2cc(S(=O)(=O)N3CCN(c4ccccc4)CC3)ccc2Cl)CC1
-1.0	c1ccc(-c2nc3c4ccccc4ccn3c2CC2CCCCC2)cc1
-2.8	C[C@H](CO)N1C[C@H](C)[C@H](CN(C)CC2CCCCC2)Oc2ccc(NS(=O)(=O)c3cn(C)cn3)cc2C1=O
2.6	C[C@@H]1CN([C@@H](C)CO)C(=O)c2cccc(NC(=O)c3ccncc3)c2O[C@H]1CN(C)C(=O)Nc1cccc2ccccc12
-2.2	CO[C@H]1O[C@H](CO)[C@@H](OC(=O)Nc2ccc3c(c2)OCO3)[C@@H]2OC(=O)[C@@H](Cc3ccccc3)C/C=C/C[C@H](Cc3ccccc3)C(=O)O[C@@H]12
1.8	COCCNC(=O)C[C@H]1C[C@H]2c3cc(NC(=O)Nc4ccc(C(F)(F)F)cc4)ccc3O[C@H]2[C@@H](CO)O1
-86.4	NC(=O)c1cccc(-c2csc(C(O)c3ccccc3)n2)c1 (stereo not given)
-0.2	C[C@H](CO)N1C[C@H](C)[C@H](CN(C)Cc2ccc(Cl)c(Cl)c2)Oc2ccc(NC(=O)Cc3cn(C)c4ccccc34)cc2C1=O
-1.0	C[C@H]1CN([C@@H](C)CO)C(=O)CCCn2nncc2CO[C@H]1CN(C)Cc1cccc(C(=O)O)c1
0.4	C[C@H]1CN([C@@H](C)CO)C(=O)c2cccc(NS(C)(=O)=O)c2O[C@H]1CN(C)Cc1ccc(-c2ccccc2)cc1
0.1	CCC(=O)Nc1ccc2c(c1)C(=O)N(C)[C@H]1CC[C@H](CC(=O)N3CCCCC3)O[C@@H]1CO2
-0.3	CC(C)NC(=O)C1(C)CCN1C(=O)c1ccccc1F (stereo not given)
-6.0	CC(=O)N1CC[C@@H]2[C@H]1c1cc(-c3cccc(F)c3)ccc1N(C)[C@H]2CO
-21.2	CCN1[C@H](C(=O)NCCc2cn(C)cn2)[C@@H](CO)[C@@H]2Cn3c(ccc(-c4ccncc4)c3=O)[C@@H]21
-12.0	CCN(CCO)CC1CCCC2CCCCC21 (stereo not given)
0.9	C[C@H]1CN([C@@H](C)CO)C(=O)Cc2cc(NC(=O)c3ccncc3)ccc2O[C@@H]1CN(C)Cc1ccc(Cl)c(Cl)c1
-0.2	COc1ccc2c3c(n(C)c2c1)[C@H](CO)N(CC1CCOCC1)CC31CCN(Cc2nccs2)CC1
-9.9	CC(=O)Nc1cccc(NC(=O)C(=O)c2cn(CC(=O)N3CCCC3)c3ccccc23)c1
0.3	COCC#Cc1cnc2c(c1)C(=O)N([C@H](C)CO)C[C@H](C)[C@@H](CN(C)Cc1ccccc1)O2
3.3	COC(=O)[C@]12C[C@H](CC(=O)N3CCC(c4ccccc4)CC3)C(=O)N(Cc3ccc4c(c3)OCO4)C1=C[C@H](C(C)(C)C)O[C@@H]2C
2.1	COc1cccc(CN2CC3(CCN(S(C)(=O)=O)CC3)c3c(n(C)c4cc(OC)ccc34)[C@H]2CO)c1
-1.5	CCCCn1nnnc1C(c1cc2ccccc2o1)N1CCN(c2ccccc2F)CC1 (stereo not given)
-3.5	COc1ccc(NC(=O)Nc2ccc3c(c2)C(=O)N([C@@H](C)CO)C[C@H](C)[C@H](CN(C)Cc2ccc(C(=O)O)cc2)O3)cc1
-1.6	COc1cccc(OC2(C)CCN(Cc3ccc(-c4ccccn4)cc3)C2)c1 (stereo not given)
4.2	O=C(C[C@H]1CC[C@@H]2[C@H](COC[C@@H](O)CN2Cc2cc(F)ccc2F)O1)N1CCc2ccccc2C1
-3.8	COc1ccccc1-c1cnc2c(c1)C(=O)N([C@H](C)CO)C[C@@H](C)[C@H](CN(C)CC1CCOCC1)O2
-3.0	CC1(C(=O)NS(=O)(=O)c2ccccc2C(F)(F)F)CCN1C(=O)CC1CCCC1 (stereo not given)
0.9	COc1ccc(NC(=O)Nc2ccc3c(c2)[C@H]2C[C@H](CC(=O)O)O[C@H](CO)[C@H]2O3)cc1
0.0	CC(C)CC#Cc1ccc([C@H]2[C@H]3CN(S(=O)(=O)c4ccccc4)CC(=O)N3[C@H]2CO)cc1
1.0	CC(=O)N1CCc2c(sc(NC(=O)c3ccc(S(=O)(=O)N(C)CC4CCCO4)cc3)c2C(N)=O)C1 (stereo not given)
0.5	COc1ccccc1-c1cn(CC[C@@H]2CC[C@H](NC(=O)C3CC3)[C@H](CO)O2)nn1
5.1	C[C@@H]1CN([C@H](C)CO)C(=O)c2cccc(NC(=O)c3cnccn3)c2O[C@H]1CN(C)Cc1ccc(Oc2ccccc2)cc1
-6.0	O=C(c1cc2c(c(-c3cccc(-c4ccc(F)cc4)c3)n1)[C@@H](CCO)N(C(=O)c1ccc3c(c1)OCO3)C2)N1CCOCC1
-2.1	CCCC(=O)Nc1ccc2c(c1)C(=O)N(C)C[C@@H](OC)[C@@H](C)CN(C(=O)CC1CC1)[C@H](C)CO2
-1.8	C[C@@H]1CN([C@H](C)CO)C(=O)Cc2cc(NS(=O)(=O)c3ccccc3)ccc2O[C@H]1CN(C)C(=O)Nc1cccc2ccccc12
-1.0	CCc1nc2ccc(C(=O)N3CCN(C(=O)c4ccco4)CC3)cn2c1N(C)C(=O)Nc1ccccc1OC
0.8	COCc1cn(CC[C@@H]2CC[C@@H](NC(=O)c3ccc(F)cc3)[C@@H](CO)O2)nn1
-0.5	Cc1noc(C)c1NC(=O)Nc1ccc2c(c1)C(=O)N(C)[C@H]1CC[C@@H](CC(=O)N[C@H]3CCN(Cc4ccccc4)C3)O[C@@H]1CO2
-1.1	COC(=O)[C@]12C[C@H](CC(=O)NCC34CC5CC(CC(C5)C3)C4)C(=O)N(CCC3=CCCCC3)C1=C[C@H](C(C)(C)C)O[C@@H]2C
-1.7	COCC(=O)N1C[C@@H](C)[C@H](OC)CN(C)C(=O)c2ccc(NC(=O)c3cc(C)on3)cc2OC[C@H]1C
6.6	Cc1cc(C)cc(C(O)c2ncc(-c3ccc(Cl)cc3)[nH]2)c1 (stereo not given)
0.1	CCN(C[C@H]1[C@@H](c2ccc(-c3ccccc3F)cc2)[C@@H](CO)N1C(C)=O)C(C)=O
-0.5	CCC(=O)N[C@H]1C=C[C@@H](CC(=O)NCCN2CCCCC2)O[C@H]1CO
-3.7	CC(C)C#Cc1ccc2c(c1)O[C@H](CN(C)C(=O)c1cnccn1)[C@@H](C)CN([C@H](C)CO)S2(=O)=O
-13.5	C[C@@H]1CN([C@@H](C)CO)C(=O)Cc2cc(NC(=O)Nc3ccccc3)ccc2O[C@H]1CN(C)C(=O)Nc1ccccc1
-2.5	COc1ccc(S(=O)(=O)NC(=O)C2(C)CCN2C(=O)Cc2cccc3ccccc23)cc1 (stereo not given)
-1.4	COC(=O)[C@H]1COC(c2ccc(OCCCO)cc2)=N1
0.5	CC(C)NC(=O)Nc1ccc2c(c1)C(=O)N([C@H](C)CO)C[C@H](C)[C@H](CN(C)C(=O)Nc1cccc3ccccc13)OCCCC[C@@H](C)O2
3.3	CN(C)C(=O)c1cccc(-c2ccc([C@@H]3[C@H](CO)N4CCCCN(CCC(F)(F)F)C[C@@H]34)cc2)c1
-2.3	Cc1noc(C)c1S(=O)(=O)Nc1cccc2c1O[C@H](CN(C)C(=O)NC(C)C)[C@H](C)CN([C@H](C)CO)C2=O

# Four entries from above, with each value named.
> COc1ccccc1-c1cn(CC[C@@H]2CC[C@H](NC(=O)C3CC3)[C@H](CO)O2)nn1
  AF4-AF9 inh: 0.5

> C[C@@H]1CN([C@H](C)CO)C(=O)c2cccc(NC(=O)c3cnccn3)c2O[C@H]1CN(C)Cc1ccc(Oc2ccccc2)cc1
  AF4-AF9 inh: 5.1

> O=C(c1cc2c(c(-c3cccc(-c4ccc(F)cc4)c3)n1)[C@@H](CCO)N(C(=O)c1ccc3c(c1)OCO3)C2)N1CCOCC1
  AF4-AF9 inh: -6.0

> CCCC(=O)Nc1ccc2c(c1)C(=O)N(C)C[C@@H](OC)[C@@H](C)CN(C(=O)CC1CC1)[C@H](C)CO2
  AF4-AF9 inh: -2.1

# Carrying on:
AF4-AF9 inh	SMILES
0.0	O=C(NCC[C@H]1CC[C@H](NS(=O)(=O)c2ccc(Cl)cc2)[C@H](CO)O1)c1ccc2c(c1)OCO2
0.1	COc1ccc(S(=O)(=O)Nc2ccc3c(c2)C(=O)N([C@@H](C)CO)C[C@@H](C)[C@@H](CN(C)C(=O)Cc2ccccc2)OCCCC[C@@H](C)O3)cc1
-5.4	C[C@@H]1CN([C@@H](C)CO)C(=O)c2cc(Br)cnc2O[C@@H]1CN(C)Cc1ccncc1
1.4	O=C(N[C@H]1CC[C@@H](CCNS(=O)(=O)c2ccc(Cl)cc2)O[C@@H]1CO)c1ccccn1
2.7	CC(C)CC#Cc1ccc2c(c1)O[C@H](CN(C)C(=O)C1CCOCC1)[C@@H](C)CN([C@@H](C)CO)S2(=O)=O
-0.9	COc1ccc(CNC(=O)C[C@@H]2CC[C@@H]3[C@@H](COc4ccc(NC(C)=O)cc4C(=O)N3C)O2)cc1
38.6*	C[C@@H]1CN([C@@H](C)CO)C(=O)Cc2cc(NC(=O)CCCN(C)C)ccc2O[C@H]1CN(C)Cc1ccc(Oc2ccccc2)cc1
8.0	CO[C@H]1CC[C@@H]2CCN(C)C(=O)[C@@H](C)[C@@H](OC)CN(C)C(=O)c3cc(C#N)ccc3OC[C@@H]1O2
-9.0	CC(C)(O)C#Cc1ccc([C@H]2[C@@H](CO)N3CCCCN(C(=O)c4cccnc4)C[C@H]23)cc1
2.1	CC(C)NC(=O)N(C)C[C@H]1Oc2ccc(NC(=O)C3CC3)cc2C(=O)N([C@H](C)CO)C[C@H]1C
2.0	C[C@H](CO)N1C[C@H](C)[C@H](CN(C)C(=O)CC2CC2)Oc2cc(C3=CCCCC3)ccc2S1(=O)=O
0.5	C[C@@H]1CN([C@@H](C)CO)C(=O)Cc2cc(NC(=O)C3CC3)ccc2O[C@H]1CN(C)S(C)(=O)=O
14.2	C[C@H](CO)N1C[C@H](C)[C@@H](CN(C)Cc2ccccc2)Oc2ccc(NC(=O)Cc3cn(C)c4ccccc34)cc2CC1=O
-25.8	O=C(NC1CCCCC1)C(c1ccccc1)n1c(=O)c(-c2cc3ccccc3[nH]2)nc2ccccc21 (stereo not given)
-1.0	C[C@H](NC(=O)C[C@H]1C[C@@H]2c3cc(NS(C)(=O)=O)ccc3O[C@@H]2[C@@H](CO)O1)c1ccccc1
1.7	CCc1nc2ccc(C(=O)N3CCCCC3)cn2c1N(C)CCCc1ccccc1
19.9	O=C(c1cccc(F)c1)N1CC[C@H]2[C@H](CO)Nc3ccc(-c4ccccc4)cc3[C@H]21
-1.8	CNC(=O)C[C@H]1CC[C@H]2[C@@H](COc3ccc(NC(=O)c4ccc(OC)cc4)cc3C(=O)N2C)O1
-6.3	CN1C(=O)c2cc(NC(=O)Cc3ccccc3)ccc2OC[C@@H]2O[C@@H](CC(=O)O)CC[C@H]21
2.7	C/C=C/c1ccc([C@H]2[C@@H](C#N)N(C(=O)NC3CCCCC3)[C@H]2CO)cc1
2.2	COc1ccc(OC)c(NC(=O)C2(C)CCN2Cc2cccc(OC)c2F)c1 (stereo not given)
-1.9	CCC(=O)N1[C@H](CO)[C@H](c2ccc(-c3cccc(OC)c3)cc2)[C@H]1CNC(C)=O
-1.9	O=C(c1ccccn1)N1C[C@H]2[C@@H](c3ccccc31)[C@H](CO)N2C(=O)Cc1ccccc1
-1.2	Cc1ccc(-c2ccc3c(c2)O[C@H](CN(C)Cc2cccc(C(=O)O)c2)[C@@H](C)CN([C@H](C)CO)S3(=O)=O)cc1
-5.6	C[C@@H]1CN([C@H](C)CO)C(=O)c2cc(-c3ccc(F)cc3)cnc2O[C@@H]1CN(C)C(=O)NC1CCCC1
-2.4	CCCC(=O)N1CCCC1(C)C(=O)Nc1ccc2c(c1)CCN2C(C)=O (stereo not given)
2.1	O=C(C[C@@H]1CC[C@H]2[C@@H](COC[C@H](O)CN2C(=O)c2ccccc2F)O1)NCc1ccc(-c2ccccc2)cc1
-4.0	C/C=C/c1cnc2c(c1)C(=O)N([C@@H](C)CO)C[C@H](C)[C@H](CN(C)Cc1ccc3c(c1)OCO3)O2
2.1	CC(C)NC(=O)N1[C@@H](CO)[C@@H]2c3ccccc3N(C(=O)Nc3ccccc3)C[C@@H]21
-1.0	COc1ccccc1NC(=O)N1CC(=O)N2[C@H](CO)[C@H](c3ccc(-c4ccccc4)cc3)[C@@H]2C1
0.4	COCC(=O)NC[C@@H]1[C@H](c2ccccc2)[C@@H](CO)N1C(=O)c1ccccc1
-4.9	CCCC#Cc1ccc([C@H]2[C@@H](CO)N3CCCCN(Cc4ccncc4)C[C@H]23)cc1
-0.1	CCCNC(=O)N(C)C[C@H]1Oc2cc(C#CCN(C)C)ccc2S(=O)(=O)N([C@@H](C)CO)C[C@H]1C
1.8	COc1ccccc1C#Cc1cnc2c(c1)C(=O)N([C@@H](C)CO)C[C@@H](C)[C@H](CN(C)S(=O)(=O)c1cn(C)cn1)O2
1.8	CC(C)NC(=O)N(C)C[C@@H]1Oc2cc(C3=CCCCC3)ccc2S(=O)(=O)N([C@@H](C)CO)C[C@H]1C

# 6 entries from above, arranged by the number in AF4-AF9 inh, high to low:
compound	AF4-AF9 inh
CC(C)NC(=O)N1[C@@H](CO)[C@@H]2c3ccccc3N(C(=O)Nc3ccccc3)C[C@@H]21	2.1
COc1ccccc1C#Cc1cnc2c(c1)C(=O)N([C@@H](C)CO)C[C@@H](C)[C@H](CN(C)S(=O)(=O)c1cn(C)cn1)O2	1.8
COCC(=O)NC[C@@H]1[C@H](c2ccccc2)[C@@H](CO)N1C(=O)c1ccccc1	0.4
CCCNC(=O)N(C)C[C@H]1Oc2cc(C#CCN(C)C)ccc2S(=O)(=O)N([C@@H](C)CO)C[C@H]1C	-0.1
CCCC(=O)N1CCCC1(C)C(=O)Nc1ccc2c(c1)CCN2C(C)=O (stereo not given)	-2.4
CCCC#Cc1ccc([C@H]2[C@@H](CO)N3CCCCN(Cc4ccncc4)C[C@H]23)cc1	-4.9

# Compound activity (PubChem BioAssay)

# The list is partial. The share of hits here may be higher or lower than overall.
